HIV Env fusion = HIV envelope-mediated fusion inhibition | HeLa-JRFL Env/CEM21 cell fusion, luciferase | inhibition, % at 12.3 µM | 360,000 compounds, 1.1% hits | AID 651610;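 active = mean replicate inhibition score of at least 50 and every replicate individually at or above 50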;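 also: 0% = plate neutral controls and 100% = maraviroc near 300 nM; one replicate is shown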
Yeast UUG start = alters start codon recognition fidelity in yeast. S. cerevisiae UUG-firefly luciferase reporter, luminescence/redox ratio. activity score, % at 18.7 µM. 350,000 compounds, 0.13% hits. AID 602363;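 active = replicate mean at a twofold rise or more, about +100% in these data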;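 also: firefly luciferase made from a UUG start codon reports start codon fidelity; reporter light over untreated wells divided by growth signal over untreated wells; some hits fall short of that in this replicate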
Numbers without * were called inactive; [ ] = dose if it differs, or a comment.

Results for Cc1noc(C)c1NC(=O)N(C)C[C@@H]1OCCCC[C@H](C)Oc2ccc(NS(=O)(=O)c3ccccc3)cc2C(=O)N([C@H](C)CO)C[C@@H]1C ?
HIV Env fusion: 11[16.7 µM]; Yeast UUG start: -2

Results for O=C(C[C@H]1C[C@@H]2c3cc(NC(=O)NC4CCCC4)ccc3O[C@@H]2[C@@H](CO)O1)NCc1ccc(Oc2ccccc2)cc1 ?
HIV Env fusion: 15[16.7 µM]; Yeast UUG start: -8

How did Cn1cnc(CCNC(=O)C[C@@H]2CC[C@H]3[C@@H](COC[C@@H](O)CN3C(=O)C3CCCC3)O2)c1 do in these assays?
HIV Env fusion: -15[16.7 µM]; Yeast UUG start: 2

What do the screens show for `C[C@@H]1CCCCO[C@@H](CN(C)S(=O)(=O)c2ccccc2)[C@@H](C)CN([C@H](C)CO)C(=O)c2cc(NS(=O)(=O)c3ccccc3)ccc2O1`?
HIV Env fusion: 2[16.7 µM]; Yeast UUG start: -1

What do the screens show for `C[C@H]1CN([C@@H](C)CO)C(=O)c2cc(-c3cccc(C(=O)N(C)C)c3)cnc2O[C@@H]1CN(C)C`?
HIV Env fusion: -13[16.7 µM]; Yeast UUG start: -14

How did C[C@@H]1CN([C@@H](C)CO)C(=O)c2cc(NC(=O)C3CCCCC3)ccc2O[C@H]1CN(C)C do in these assays?
HIV Env fusion: 10[16.7 µM]; Yeast UUG start: -10

Results for Cc1ccccc1S(=O)(=O)NCC[C@@H]1CC[C@@H](NC(=O)C2CC2)[C@@H](CO)O1 ?
HIV Env fusion: 9[16.7 µM]; Yeast UUG start: 11

How did CO[C@H]1CN(C)C(=O)c2cc(NS(=O)(=O)c3cn(C)cn3)ccc2OC[C@@H](C)NC[C@H]1C do in these assays?
HIV Env fusion: -15[16.7 µM]; Yeast UUG start: -2

Results for COC(=O)C[C@H]1CC[C@H]2[C@@H](COc3ccc(NC(=O)Nc4cccc(Cl)c4)cc3C(=O)N2C)O1 ?
HIV Env fusion: 3[16.7 µM]; Yeast UUG start: 9

What do the screens show for `C[C@H]1CN([C@@H](C)CO)C(=O)c2cc(-c3cccc(F)c3)cnc2O[C@@H]1CN(C)CC1CCOCC1`?
HIV Env fusion: -4[16.7 µM]; Yeast UUG start: 10

Results for CCCNC(=O)C[C@H]1CC[C@@H]2[C@@H](COc3ccc(NC(=O)C4CCCC4)cc3C(=O)N2C)O1 ?
HIV Env fusion: 8[16.7 µM]; Yeast UUG start: 9

Results for C[C@H](CO)N1C[C@H](C)[C@@H](CN(C)C)Oc2cc(C#CCN(C)C)ccc2S1(=O)=O ?
HIV Env fusion: -3[16.7 µM]; Yeast UUG start: -3

What do the screens show for `O=C(N[C@@H]1CC[C@H](CCNC(=O)C2CCCCC2)O[C@H]1CO)c1ccccn1`?
HIV Env fusion: 7[16.7 µM]; Yeast UUG start: 5

How did CNC(=O)C[C@@H]1CC[C@H]2[C@@H](COc3ccc(NC(=O)c4ccccc4Cl)cc3C(=O)N2C)O1 do in these assays?
HIV Env fusion: -11[16.7 µM]; Yeast UUG start: -12

Results for C[C@@H]1CCCCO[C@H](CN(C)S(=O)(=O)c2ccc(F)cc2)[C@H](C)CN([C@H](C)CO)C(=O)c2cc(NC(=O)C3CCCCC3)ccc2O1 ?
HIV Env fusion: 20[16.7 µM]; Yeast UUG start: 4

Looked up by compound from above (two):
Results for C[C@@H]1CCCCO[C@H](CN(C)S(=O)(=O)c2ccc(F)cc2)[C@H](C)CN([C@H](C)CO)C(=O)c2cc(NC(=O)C3CCCCC3)ccc2O1 ?
HIV Env fusion: 20[16.7 µM]; Yeast UUG start: 4

Results for C[C@H](CO)N1C[C@H](C)[C@@H](CN(C)C)Oc2cc(C#CCN(C)C)ccc2S1(=O)=O ?
HIV Env fusion: -3[16.7 µM]; Yeast UUG start: -3

Remaining list, next part.
Results for COc1ccc(S(=O)(=O)Nc2ccc3c(c2)C(=O)N([C@H](C)CO)C[C@H](C)[C@H](CN(C)C(=O)Nc2ccccc2)OCCCC[C@H](C)O3)cc1 ?
HIV Env fusion: 60*[16.7 µM]; Yeast UUG start: 3

Results for C[C@H](CO)N1C[C@H](C)[C@H](CN(C)C(=O)CN(C)C)Oc2cc(C#CCN(C)C)ccc2S1(=O)=O ?
HIV Env fusion: -25[16.7 µM]; Yeast UUG start: 14

What do the screens show for `C=CCN1C(=O)[C@]2(O[C@H](CCn3cc(CCO)nn3)[C@@H]([Si](C)(C)c3ccc(OC)cc3)[C@@H]2C)c2cc(N3CCOC3=O)ccc21`?
HIV Env fusion: 10[16.7 µM]; Yeast UUG start: -3

Results for CNC[C@@H]1Oc2ccc(NC(=O)CCCN(C)C)cc2C(=O)N([C@@H](C)CO)C[C@H]1C ?
HIV Env fusion: -9[16.7 µM]; Yeast UUG start: -6

How did CO[C@H]1CN(C)C(=O)c2ccc(NC(=O)Nc3cccc(Cl)c3)cc2OC[C@H](C)NC[C@@H]1C do in these assays?
HIV Env fusion: 13[16.7 µM]; Yeast UUG start: 2

How did COc1ccc(S(=O)(=O)Nc2ccc3c(c2)C(=O)N([C@H](C)CO)C[C@H](C)[C@@H](CN(C)CC2CCCCC2)OCCCC[C@H](C)O3)cc1 do in these assays?
HIV Env fusion: -23[16.7 µM]; Yeast UUG start: 31

How did C[C@H](CO)N1C[C@H](C)[C@H](CN(C)Cc2ccccc2)Oc2ccc(NC(=O)CCCN(C)C)cc2C1=O do in these assays?
HIV Env fusion: 0[16.7 µM]; Yeast UUG start: -13

How did C[C@@H]1CCCCO[C@H](CN(C)C(=O)C2CCCCC2)[C@H](C)CN([C@@H](C)CO)C(=O)c2cc(NS(=O)(=O)c3cn(C)cn3)ccc2O1 do in these assays?
HIV Env fusion: 10[16.7 µM]; Yeast UUG start: -5

How did CNC[C@@H]1OCCCC[C@@H](C)Oc2ccc(NS(=O)(=O)c3ccccc3)cc2C(=O)N([C@@H](C)CO)C[C@@H]1C do in these assays?
HIV Env fusion: 18[16.7 µM]; Yeast UUG start: 10

What do the screens show for `C[C@@H]1CN([C@H](C)CO)C(=O)Cc2cc(NC(=O)C3CC3)ccc2O[C@H]1CN(C)CC1CC1`?
HIV Env fusion: -13[16.7 µM]; Yeast UUG start: -7

Results for C[C@H](CO)N1C[C@H](C)[C@H](CN(C)Cc2ccncc2)Oc2ncc(-c3cncnc3)cc2C1=O ?
HIV Env fusion: -7[16.7 µM]; Yeast UUG start: 2

What do the screens show for `COc1ccccc1-c1cnc2c(c1)C(=O)N([C@@H](C)CO)C[C@@H](C)[C@@H](CN(C)C)O2`?
HIV Env fusion: -16[16.7 µM]; Yeast UUG start: 5

Results for C[C@H]1CN([C@@H](C)CO)C(=O)c2cccc(N(C)C)c2O[C@H]1CN(C)Cc1ccc(C(=O)Nc2ccccc2N)cc1 ?
HIV Env fusion: 18[16.7 µM]; Yeast UUG start: 4

Results for C[C@H](CO)N1C[C@H](C)[C@H](CN(C)S(=O)(=O)c2cccs2)OCCCC[C@H](C)Oc2ccc(NS(C)(=O)=O)cc2C1=O ?
HIV Env fusion: 12[16.7 µM]; Yeast UUG start: -18

Results for C[C@H](O)C#Cc1cnc2c(c1)C(=O)N([C@@H](C)CO)C[C@H](C)[C@@H](CN(C)C(=O)c1ccccc1F)O2 ?
HIV Env fusion: 18[16.7 µM]; Yeast UUG start: -8

Filtered by structure: those above containing two or more sulfur atoms
What do the screens show for `C[C@@H]1CCCCO[C@@H](CN(C)S(=O)(=O)c2ccccc2)[C@@H](C)CN([C@H](C)CO)C(=O)c2cc(NS(=O)(=O)c3ccccc3)ccc2O1`?
HIV Env fusion: 2[16.7 µM]; Yeast UUG start: -1

Results for C[C@H](CO)N1C[C@H](C)[C@H](CN(C)S(=O)(=O)c2cccs2)OCCCC[C@H](C)Oc2ccc(NS(C)(=O)=O)cc2C1=O ?
HIV Env fusion: 12[16.7 µM]; Yeast UUG start: -18

(list continues)
What do the screens show for `C[C@@H]1CN([C@H](C)CO)C(=O)c2cc(C#Cc3ccccc3F)cnc2O[C@H]1CN(C)C(=O)Cc1ccccc1`?
HIV Env fusion: 15[16.7 µM]; Yeast UUG start: -11

Results for CCCNC(=O)Nc1ccc2c(c1)C(=O)N(C)C[C@@H](OC)[C@H](C)CN(CCC)[C@@H](C)CO2 ?
HIV Env fusion: 1[16.7 µM]; Yeast UUG start: -6

How did COc1ccc(S(=O)(=O)N(C)C[C@@H]2OCCCC[C@H](C)Oc3ccc(NS(C)(=O)=O)cc3C(=O)N([C@H](C)CO)C[C@H]2C)cc1 do in these assays?
HIV Env fusion: 2[16.7 µM]; Yeast UUG start: 11

What do the screens show for `C[C@H](CO)N1C[C@H](C)[C@@H](CN(C)Cc2ccccc2)Oc2ccc(NC(=O)Nc3ccccc3)cc2CC1=O`?
HIV Env fusion: -2[16.7 µM]; Yeast UUG start: -7

How did Cc1noc(C)c1NC(=O)Nc1ccc2c(c1)CC(=O)N([C@H](C)CO)C[C@@H](C)[C@H](CN(C)C(=O)Nc1c(C)noc1C)O2 do in these assays?
HIV Env fusion: 8[16.7 µM]; Yeast UUG start: 2

What do the screens show for `C[C@@H]1CCCCO[C@@H](CN(C)C(=O)NC2CCCCC2)[C@@H](C)CN([C@H](C)CO)C(=O)c2cc(NC(=O)c3ccncc3)ccc2O1`?
HIV Env fusion: -40[16.7 µM]; Yeast UUG start: -8

What do the screens show for `C[C@H]1CN([C@@H](C)CO)C(=O)c2cc(-c3cccc(C(=O)N(C)C)c3)cnc2O[C@@H]1CN(C)S(=O)(=O)c1cccc(F)c1`?
HIV Env fusion: 8[16.7 µM]; Yeast UUG start: 7

Results for C/C=C/c1cnc2c(c1)C(=O)N([C@H](C)CO)C[C@@H](C)[C@H](CN(C)C(=O)C1CC1)O2 ?
HIV Env fusion: 10[16.7 µM]; Yeast UUG start: 7

Results for Cc1ccc(S(=O)(=O)N[C@@H]2CC[C@H](CCn3cc(C4(O)CCCC4)nn3)O[C@@H]2CO)cc1 ?
HIV Env fusion: 2[16.7 µM]; Yeast UUG start: -5

Results for CCCNC(=O)N(C)C[C@@H]1Oc2cc(-c3ccccc3F)ccc2S(=O)(=O)N([C@@H](C)CO)C[C@@H]1C ?
HIV Env fusion: -21[16.7 µM]; Yeast UUG start: 6

How did COc1cccc(S(=O)(=O)N[C@H]2C=C[C@@H](CC(=O)NC3CCC3)O[C@@H]2CO)c1 do in these assays?
HIV Env fusion: -17[16.7 µM]; Yeast UUG start: 12

Results for C[C@@H]1CN([C@@H](C)CO)C(=O)c2cc(-c3ccncc3)cnc2O[C@H]1CN(C)C(=O)c1ccccc1F ?
HIV Env fusion: 26[16.7 µM]; Yeast UUG start: -12

Results for CC(=O)N(C)C[C@@H]1Oc2ncc(-c3ccc(F)cc3)cc2C(=O)N([C@@H](C)CO)C[C@@H]1C ?
HIV Env fusion: -26[16.7 µM]; Yeast UUG start: 11

What do the screens show for `COc1cccc(-c2ccc([C@H]3[C@@H](C#N)N(C(=O)c4ccccn4)[C@@H]3CO)cc2)c1`?
HIV Env fusion: 7[16.7 µM]; Yeast UUG start: -6

How did C[C@@H]1CN([C@@H](C)CO)C(=O)Cc2cc(NS(=O)(=O)c3cccs3)ccc2O[C@H]1CN(C)C(=O)NC1CCCCC1 do in these assays?
HIV Env fusion: 6[16.7 µM]; Yeast UUG start: 9

Structures shown so far with a thiophene ring, fused or not, in the order listed:
Results for C[C@H](CO)N1C[C@H](C)[C@H](CN(C)S(=O)(=O)c2cccs2)OCCCC[C@H](C)Oc2ccc(NS(C)(=O)=O)cc2C1=O ?
HIV Env fusion: 12[16.7 µM]; Yeast UUG start: -18

How did C[C@@H]1CN([C@@H](C)CO)C(=O)Cc2cc(NS(=O)(=O)c3cccs3)ccc2O[C@H]1CN(C)C(=O)NC1CCCCC1 do in these assays?
HIV Env fusion: 6[16.7 µM]; Yeast UUG start: 9

More results follow:
How did N#C[C@H]1[C@H](c2ccccc2)[C@H](CO)N1S(=O)(=O)c1cccc(F)c1 do in these assays?
HIV Env fusion: 3[16.7 µM]; Yeast UUG start: 0

How did CCCNC(=O)N[C@@H]1CC[C@H](CCn2cc(C3CCCCC3)nn2)O[C@H]1CO do in these assays?
HIV Env fusion: 1[16.7 µM]; Yeast UUG start: -10

Results for C[C@@H]1CN([C@H](C)CO)C(=O)Cc2cc(NC(=O)Nc3ccccc3)ccc2O[C@H]1CN(C)C ?
HIV Env fusion: -18[16.7 µM]; Yeast UUG start: -7

How did Cc1noc(C)c1S(=O)(=O)Nc1ccc2c(c1)C(=O)N([C@H](C)CO)C[C@@H](C)[C@H](CN(C)C(=O)Nc1ccccc1)OCCCC[C@@H](C)O2 do in these assays?
HIV Env fusion: -105[16.7 µM]; Yeast UUG start: -9

How did C[C@@H]1CCCCO[C@H](CN(C)Cc2ccccc2)[C@@H](C)CN([C@@H](C)CO)C(=O)c2cc(NC(=O)c3ccccc3)ccc2O1 do in these assays?
HIV Env fusion: 11[16.7 µM]; Yeast UUG start: 5

What do the screens show for `COC(=O)C[C@H]1CC[C@@H](NS(=O)(=O)c2ccc(OC)cc2)[C@@H](CO)O1`?
HIV Env fusion: 7[16.7 µM]; Yeast UUG start: 10

What do the screens show for `O=C(C[C@@H]1C[C@@H]2c3cc(NC(=O)NC4CCCCC4)ccc3O[C@@H]2[C@H](CO)O1)NCc1ccncc1`?
HIV Env fusion: 22[16.7 µM]; Yeast UUG start: -9

How did C[C@H](CO)N1C[C@H](C)[C@@H](CN(C)S(=O)(=O)c2ccc(F)cc2)Oc2ccc(NC(=O)Nc3ccc(F)cc3)cc2CC1=O do in these assays?
HIV Env fusion: 6[16.7 µM]; Yeast UUG start: 26

What do the screens show for `CN(C)CCCNC(=O)C[C@@H]1CC[C@H](NS(=O)(=O)c2ccc(F)cc2)[C@@H](CO)O1`?
HIV Env fusion: -9[16.7 µM]; Yeast UUG start: 0

The list is partial, so the mix of outcomes need not match the whole.
